# SARS PLP yeast: qHTS of Yeast-based Assay for SARS-CoV PLP | Potency, µM (doses to about 32.9 µM), inactives show at the highest dose activity, positive = growth rescue | S. cerevisiae expressing SARS-CoV PLpro, growth rescue; control for the full effect not named in the record | hit rate 0.19% among 330,000 | AID 485353, 2010; active means well fitted rising curve with a large enough effect; inconclusive means small, poorly fitted or top-dose-only effect; inactive means no such curve, though single readings can be large or run the other way; note: 0% is about no effect; nearly all actives have a fitted effect of over 55% in size; growth read by luminescence after 48 h
# Marburg entry inh: qHTS for inhibitors of binding or entry into cells for Marburg Virus; Potency, µM (top dose mostly 37.8 µM), without a hit: at the top dose activity change, negative = inhibition, usual class: inhibitors; hit rate 1.8% among 300,000; Marburg virus pseudotyped entry inhibition, cell reporter; control for the full effect not named in the record; about a third of the inactives were read at about 46 µM; AID 540276, 2011; active = well fitted inhibition curve with a large enough effect; inconclusive = small, poorly fitted or top-dose-only effect, or effect the other way; inactive = flat fitted curve, though single readings scatter; tested in HEK293 cells; about a fifth of its hits are not listed in these tables; note: % is set by controls: 0 for no effect and ±100 for the full control effect; luciferase read-out
# RE007 growth inh: qHTS Assay for Inhibitors of the HIV-1 protein Vpr; S. pombe RE007 Vpr strain, BacTiter-Glo ATP luminescence, 24 h; control for the full effect not named in the record; Potency, µM (doses to about 92.2 µM), inactives show at the highest dose activity change, negative = less growth; hit rate 0.21% among 360,000; active = well fitted falling curve with a large enough effect; inconclusive = small, poorly fitted or top-dose-only effect; inactive = no such curve, though single readings can be large or run the other way;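 note: % is set by controls: 0 for no effect and ±100 for the full control effect; nearly all actives have a fitted effect of over 50% in size; the assay follows cell death caused by Vpr and the record does not say whether a fall means rescue or toxicity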
#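 Fission yeast strain RE007, carrying one chromosomally integrated HIV-1 vpr copy, was seeded at OD 0.01 in PMG+AL medium with 23 nL pinned compound. After 24 h at 30 °C and 99% humidity, viability was read by BacTiter-Glo luminescence.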
# NS1 function inh: qHTS Assay for Inhibitors of Influenza NS1 Protein Function | S. cerevisiae slowed by influenza A NS1, growth recovery by OD600 | Potency, µM (top dose mostly 46.1 µM), without a hit: top-dose activity, positive = more growth | hit rate 0.4% among 270,000 | AID 2326, 2010; active means well fitted rising curve with a large enough effect; inconclusive means small, poorly fitted or top-dose-only effect; inactive means no such curve, though single readings can be large or run the other way; note: nearly all actives have a fitted effect of over 50% in size
#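 Read-out: OD600 growth recovery of NS1-expressing budding yeast. Cells grown overnight at 30C in -URA glucose medium, washed, resuspended and diluted 1:100 in 2% galactose assay medium, pH 6.0. Same strain lacking NS1 served as positive control.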
# LASV entry inh: qHTS for Inhibitors of binding or entry into cells for Lassa Virus | Lassa virus pseudotype entry inhibition, cell reporter; control for the full effect not named in the record | Potency, µM (highest dose often 37.9 µM), for the others: top-dose activity change, negative = inhibition, usual class: inhibitors | hit rate 1.2% among 300,000; active means well fitted inhibition curve with a large enough effect; inconclusive means small, poorly fitted or top-dose-only effect, or effect the other way; inactive means flat fitted curve, though single readings scatter; tested in HEK293 cells; note: % is set by controls: 0 for no effect and ±100 for the full control effect; nearly all actives have a fitted effect of over 50% in size; luciferase read-out
# Cruzain Triton: qHTS Assay for Promiscuous and Specific Inhibitors of Cruzain (with detergent). hit rate 0.43% among 200,000. AID 1478, 2009. purified cruzain, Z-FR-AMC fluorescence, 0.01% Triton. Potency, µM, for the others: max response, negative = inhibition, actives largely listed as inhibitors;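 note: plate controls were neutral wells for no effect and buffer without enzyme for full effect; nearly all actives have a fitted effect of over 40% in size; top concentration of the series not given in the record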
# Target sequence (P25779 123-467 limits assumed): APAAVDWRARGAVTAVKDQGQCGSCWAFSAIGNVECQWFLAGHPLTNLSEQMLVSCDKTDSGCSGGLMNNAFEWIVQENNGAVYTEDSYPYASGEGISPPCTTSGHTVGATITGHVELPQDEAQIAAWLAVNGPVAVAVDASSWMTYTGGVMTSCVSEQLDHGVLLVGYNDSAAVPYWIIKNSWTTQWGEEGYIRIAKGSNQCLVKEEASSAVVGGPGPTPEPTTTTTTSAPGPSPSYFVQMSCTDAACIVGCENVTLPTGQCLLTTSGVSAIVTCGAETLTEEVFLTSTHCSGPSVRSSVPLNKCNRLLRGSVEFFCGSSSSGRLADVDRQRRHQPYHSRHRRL
#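 Compounds were screened in titration against cruzain (1.5 nM) with 0.01% Triton X-100 to counter colloidal aggregation. Activity was the AMC fluorescence increase over 60 s after adding 2 uM Z-FR-AMC at pH 5.5.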
# Cruzain noTriton: qHTS Assay for Promiscuous and Specific Inhibitors of Cruzain (without detergent); Cruzipain (Trypanosoma cruzi), P25779; purified cruzain, Z-FR-AMC fluorescence, no detergent; Potency, µM, for the others: max response, negative = inhibition, actives largely listed as inhibitors; hit rate 2.3% among 200,000;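 note: plate controls were enzyme without inhibitor for no effect and buffer without enzyme for full effect; nearly all actives have a fitted effect of over 40% in size; top concentration of the series not given in the record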
#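 Purified cruzain at 1.5 nM, pre-incubated 15 min with compound at room temperature in 100 mM sodium acetate pH 5.5, 5 mM DTT, 0.00005% Triton X-100. Reaction started with 2 uM Z-FR-AMC; AMC fluorescence increase over 60 s gives rate.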
# 2A StopGo: High Throughput Screening for Foot and Mouth Disease Virus Antivirals | human cells with a luciferase reporter of 2A StopGo recoding; control for the full effect not named in the record | AID 1159524, 2015 | hit rate 1.2% among 410,000 | Potency, µM (highest dose often 57.9 µM), for inactives: at the highest dose signal change, negative = less light; active = well fitted falling curve with a large enough effect; inconclusive = small, poorly fitted or top-dose-only effect; inactive = no such curve, though single readings can be large or run the other way; tested in HEK293T cells; note: % is set by controls: 0 for no effect and ±100 for the full control effect; nearly all actives have a fitted effect of over 45% in size; luciferase light after 4 h
# * marks the source's active call; other numbers are inactive results; u = inconclusive; x = not tested or not shown; & = joins results of further samples; [ ] = dose if it differs, or a comment. Unless noted, calls come from the whole dose curve; as a rule, active = well fitted curve in the direction sought with a large enough effect; inconclusive = small, poorly fitted or top-dose-only effect, or another doubt; inactive = no such curve, though single readings can be large; an effect the other way counts as inactive or inconclusive. Potency is the fitted concentration of half-maximal effect.
# Sample of the layout:
SMILES,SARS PLP yeast,Marburg entry inh,RE007 growth inh,NS1 function inh,LASV entry inh,Cruzain Triton,Cruzain noTriton,2A StopGo
CCn1c(=N)c(C(=O)NC2CCCC2)cc2c(=O)n3cc(C)ccc3nc21,x,-7.1%[46.1 µM],x,x,3.1%[46.1 µM],-1.7%,22.5%,-8.6%
CCOC(=O)CSc1ncccn1,-1.5%,-3.7%[46.1 µM],9.5%,-1.8%,-11.9%,x,x,-6.8%
Cc1cc(=O)oc2cc(OC(C)C(=O)N3CCOCC3)ccc12 (stereo not given),3.5%,-4.1%,-5.0%,-3.2%,12.9%,-23.5%,-13.2%,6.7%

# The listing, from the start:
SMILES,SARS PLP yeast,Marburg entry inh,RE007 growth inh,NS1 function inh,LASV entry inh,Cruzain Triton,Cruzain noTriton,2A StopGo
CCn1c(=N)c(C(=O)NC2CCCC2)cc2c(=O)n3cc(C)ccc3nc21,x,-7.1%[46.1 µM],x,x,3.1%[46.1 µM],-1.7%,22.5%,-8.6%
CCOC(=O)CSc1ncccn1,-1.5%,-3.7%[46.1 µM],9.5%,-1.8%,-11.9%,x,x,-6.8%
Cc1cc(=O)oc2cc(OC(C)C(=O)N3CCOCC3)ccc12 (stereo not given),3.5%,-4.1%,-5.0%,-3.2%,12.9%,-23.5%,-13.2%,6.7%
COc1cccc(NC(=O)C/C(C)=N/NC(=O)c2ccccc2Cl)c1,0.7%,x,-14.3%,-1.2%,x,x,x,0.0%
CC(=O)N1CCC(N(CCN2CCOCC2)C(=S)Nc2ccc(C)cc2C)CC1,8.9%,-14.0%[46.1 µM],-0.6%,x,5.1%[46.1 µM],x,x,-9.7%
N#CCCN1CCN(S(=O)(=O)c2ccc(C#N)cc2)CC1,-21.5%,11.0%,1.2%,3.8%,-1.9%,2.7%,-6.0%,-20.2%
c1ccc(-n2nnc3ccccc32)cc1,2.9%,x,-8.9%,-15.2%,x,x,x,-4.0%
COc1cc(OC)cc(C(=O)Nc2ccccc2C(=O)N2CCCC2)c1,3.5%,-5.6%,-8.9%,-13.7%,3.3%,4.0%,-1.0%,-19.6%
COCCCNC(=S)NC(=O)c1ccccc1,9.0%,8.3%,x,19.2%,u,-1.9%,1.5%,51.0%[activator]
COc1ccc(CCNc2c([N+](=O)[O-])ncn2C)cc1OC,1.2%,x,17.6%,-0.2%,x,x,x,-9.2%
O=C(CN1CCN(C(=O)C2CCCO2)CC1)Nc1cc(Cl)ccc1Cl (stereo not given),u,x,10.7%,14.2%,x,x,x,-14.8%
O=C(CCn1c(=O)c2cccn2c2cccnc21)N1CCN(c2ccccc2F)CC1,x,x,x,x,17.0%[46.1 µM],0.1%,-4.5%,5.5%
O=C(/C=C/c1ccc(OCCCF)cc1)NCc1cccc(Cl)c1,-7.1%,0.0%,-5.1%,-5.0%,11.6%,-2.2%,0.6%,-10.3%
CN1CCN(C(=O)c2ccc3c(c2)N(Cc2cccc(Cl)c2)C(=O)c2ccccc2S3(=O)=O)CC1,5.3%,x,-9.5%,-18.1%,u,-0.7%,-5.2%,-1.8%&1.5%
NC(=O)CN1CCOCCOCCOCCOCCOCC1,-0.5%,-7.4%,-0.3%,-0.5%,14.8%,2.9%,-4.4%,2.6%
C=CCn1c(=O)c2ccccc2n2c(SCC(=O)NCC)nnc12,0.5%,x,-6.7%,1.4%,x,x,x,-19.7%
CCOC(=O)c1cccc(NC(=O)COc2ccc3c(C)cc(=O)oc3c2)c1,x,x,x,x,20.7%[46.1 µM],-1.0%,26.6%,0.9%
CCOC(=O)N1CCC(NC(=O)CSCc2nc(-c3ccc(C)cc3)oc2C)CC1,1.3%,x,-5.6%,-2.9%,x,x,x,u
COc1cccc(OC)c1C(=O)NCCc1csc(-c2ccc(Cl)cc2)n1,x,x,x,x,-13.4%[46.1 µM],-9.5%,u,u
CC1C2Cn3c(nc4ccccc43)C1N(C(C)C)O2 (stereo not given),1.2%,x,-5.4%,-3.5%,x,x,x,-12.5%
CCOc1ccc(NC(=O)C2CCCN(S(=O)(=O)c3c(C)nn(C)c3C)C2)cc1 (stereo not given),3.4%,0.7%,-6.4%,u,x,-1.4%,17.6%,-20.4%
Cc1ccc2cc3c(nc2c1)N(Cc1ccco1)CC3,0.4%,-22.5%[46.1 µM],1.5%,-1.2%,u,-9.5%,-6.5%,-19.1%
COc1ccc(NC(=O)Cn2c3ccccc3c3nc4n(c(=O)c32)CCS4)cc1,4.7%,-28.1%[46.1 µM],-6.8%,x,-6.0%,x,x,-5.4%
O=C(CN1CCN(Cc2ccccc2)CC1)N/N=C/C=C/c1ccco1,-6.0%,19.8%,10.2%,-10.6%,-2.7%,-7.2%,5.5%,-15.3%
Cc1nc2sc(C(=O)NCc3ccc(Cl)cc3)c(NC(=O)c3ccccc3)c2c(C)c1C,x,-0.7%[46.1 µM],x,x,u,-0.8%,-10.1%,-14.2%
COc1ccc(N(CC(=O)NCc2ccccc2Cl)S(=O)(=O)c2c(C)[nH]c(=O)[nH]c2=O)cc1,x,5.9%[46.1 µM],x,x,12.0%[46.1 µM],-0.3%,-2.2%,-15.1%
COCCNC(=O)CN1c2ccccc2CC1C (stereo not given),3.6%,21.3%[46.1 µM],5.2%,0.0%,25.3%,1.2%,25.1%,-6.8%
CN1C(C(=O)N2CCC3(CC2)OCCO3)=CC(c2ccc(F)cc2)=NS1(=O)=O,-12.0%,x,4.4%,-3.3%,x,x,x,-2.2%
CC(C)(Oc1ccc(-c2ccco2)cc1)C(=O)O,0.2%,-4.7%,x,3.2%,x,2.5%,6.7%,x
Cc1cccc(NC(=O)CSc2nccn2Cc2ccco2)c1,-7.3%,u,-4.1%,-10.1%,-1.9%,x,x,23.9%
CCc1ccc(S(=O)(=O)NCCc2cn3ccccc3n2)s1,4.0%,1.5%,-2.3%,-2.3%,-7.5%,3.4%,1.9%,-8.5%
CC(NC(=O)CCNS(=O)(=O)c1ccccc1)c1ccccc1 (stereo not given),4.1%,2.4%,-6.9%,u,22.6%,x,x,0.0%
O=C(Nc1ccc2c(c1)OCCO2)C1CCCN(c2ncccn2)C1 (stereo not given),2.2%,u,1.0%,-18.2%,-28.5%,-2.3%,1.4%,-21.7%
Cc1cc(OC(C)C(=O)N/N=C/CC(C)c2ccccc2)ccc1Cl (stereo not given),6.6%,13.1%[46.1 µM],9.0%,3.3%,-0.3%,6.6%,14.8%,-4.4%
COc1ccccc1NS(=O)(=O)c1cccc(NC(=O)Nc2ccc(Cl)cc2)c1,-0.1%,u,1.1%,4.9%,6.31µM*,x,x,u
Cc1cccc(NC(=O)CSc2nc3nc(C)cc(C)n3n2)c1,-2.3%,13.9%[46.1 µM],0.4%,8.7%,-10.9%,x,x,-15.0%
CCOC(=O)c1ccccc1NC(=O)Cc1ccc(S(=O)(=O)N2CCCC2)s1,-2.0%,-20.6%[46.1 µM],-7.0%,x,u,x,x,0.0%
COCC(C)N1CCC(n2nccc2NC(=O)c2ccccc2Cl)CC1 (stereo not given),x,10.7%,-12.1%,x,2.3%,x,x,-11.4%
CC(C)(C)C(C(=O)O)N1CCS(=O)(=O)CC1 (stereo not given),-1.2%,2.1%[46.1 µM],1.3%,x,6.9%[46.1 µM],x,x,4.9%
O=C(N/C=C/c1ccccc1)Nc1ccc(Cl)cc1,-8.3%,-18.7%,-4.9%,-46.6%,u,-4.1%,-29.7%,24.9%
COc1ccc(NC(=O)C2=CC(c3ccc4c(c3)OCO4)=NS(=O)(=O)N2C)cc1OC,x,15.7%[46.1 µM],x,x,17.2%[46.1 µM],-2.2%,6.1%,-21.0%
CCN1CCN(C(=S)Nc2ccsc2C(=O)OC)CC1,-1.0%,u,-5.0%,x,-2.3%[46.1 µM],x,x,18.2%
Nc1ccccc1C(=O)N1CCC(O)(c2ccc(Cl)cc2)CC1,2.1%,x,2.0%,-10.6%,x,x,x,-2.8%
O=C(Oc1c(-c2ccccc2)c(=O)n2c3c(cccc13)CC2)c1ccc(Cl)cc1,0.7%,-12.7%[46.1 µM],23.6%,18.1%,14.8%[46.1 µM],x,x,-6.4%
O=C(NC(=S)NNS(=O)(=O)c1ccc(Cl)cc1)c1cccnc1,0.9%,-3.4%[46.1 µM],8.0%,-3.9%,4.8%,x,x,-16.2%
CC(=O)Nc1nnc(SCc2cc(=O)c3cc(C)ccc3[nH]2)s1,x,x,x,x,9.6%[46.1 µM],0.0%,-1.6%,-22.3%
CC(=O)N1c2c(cc(Br)cc2S(=O)(=O)N2CCN(C(=O)c3ccco3)CC2)CC1C (stereo not given),-4.8%,u,-23.9%,-1.9%,-7.6%,-3.8%,u,-5.2%
Cc1nc(NC(=O)C2CCCC2)sc1Cc1ccc2c(c1)OCO2,-14.8%,20.7%,8.2%,-15.9%,4.0%,-5.7%,-6.3%,39.2%[activator]

# Exported with two lines to a compound: entries from further up
# Order of values: SARS PLP yeast | Marburg entry inh | RE007 growth inh | NS1 function inh | LASV entry inh | Cruzain Triton | Cruzain noTriton | 2A StopGo
- O=C(Oc1c(-c2ccccc2)c(=O)n2c3c(cccc13)CC2)c1ccc(Cl)cc1
→ 0.7% | -12.7%[46.1 µM] | 23.6% | 18.1% | 14.8%[46.1 µM] | x | x | -6.4%
- O=C(NC(=S)NNS(=O)(=O)c1ccc(Cl)cc1)c1cccnc1
→ 0.9% | -3.4%[46.1 µM] | 8.0% | -3.9% | 4.8% | x | x | -16.2%
- CC(=O)Nc1nnc(SCc2cc(=O)c3cc(C)ccc3[nH]2)s1
→ x | x | x | x | 9.6%[46.1 µM] | 0.0% | -1.6% | -22.3%
